Screens as filed in PubChem BioAssay.
FGF22 binding: binders of human FGF22 protein, primary screen, FGF22 synaptogenesis inhibitor project, biophysical, thermal shift, single point; Fibroblast growth factor 22 (Homo sapiens), Q9HCT0; hit rate 1.5% among 340,000; calls only at 9.99 µM; recombinant FGF22 thermal shift, SYPRO orange fluorescence; percent of sucrose octasulfate shift, DMSO zero;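 active = melting point raised past a set limit in the mean and every replicate; inconclusive = no clear call; three in four hits are not shown here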
Target sequence (Q9HCT0 whole entry, looked up): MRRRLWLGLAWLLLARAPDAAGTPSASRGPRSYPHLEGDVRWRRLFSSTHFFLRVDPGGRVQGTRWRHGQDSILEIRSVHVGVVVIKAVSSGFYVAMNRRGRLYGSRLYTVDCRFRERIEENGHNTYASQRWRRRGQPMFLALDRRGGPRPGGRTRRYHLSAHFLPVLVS
Ecoli growth: E. coli growth inhibition, primary screen, OD600. Escherichia coli growth, 23 h; active compounds read low. OD600 absorbance (no concentration beside the values). hit rate 0.21% among 330,000. AID 1053175, 2014;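 active = OD600 absorbance below the run mean of sample wells minus 3.6 SD, in any replicate, cut at about 0.56 in these data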;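 also: stock transfer was 300 nL into about 60 µL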
HNF4A DNA FP: change in binding of human HNF4A to DNA, primary screen, biochemical, fluorescence polarization, FITC-DNA | 1 h | activity change, % at 10 µM | hit rate 0.3% among 360,000; in the data active = activity change above about 30%, passing the limit was not always enough;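 also: controls were the assay level and a saturating level of protein; the project sought stronger binding though the title names inhibitors; some compounds called inactive have numbers as strong as hits; positive values seem to mean higher polarization but the record does not say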
Target sequence (P41235 whole entry, looked up): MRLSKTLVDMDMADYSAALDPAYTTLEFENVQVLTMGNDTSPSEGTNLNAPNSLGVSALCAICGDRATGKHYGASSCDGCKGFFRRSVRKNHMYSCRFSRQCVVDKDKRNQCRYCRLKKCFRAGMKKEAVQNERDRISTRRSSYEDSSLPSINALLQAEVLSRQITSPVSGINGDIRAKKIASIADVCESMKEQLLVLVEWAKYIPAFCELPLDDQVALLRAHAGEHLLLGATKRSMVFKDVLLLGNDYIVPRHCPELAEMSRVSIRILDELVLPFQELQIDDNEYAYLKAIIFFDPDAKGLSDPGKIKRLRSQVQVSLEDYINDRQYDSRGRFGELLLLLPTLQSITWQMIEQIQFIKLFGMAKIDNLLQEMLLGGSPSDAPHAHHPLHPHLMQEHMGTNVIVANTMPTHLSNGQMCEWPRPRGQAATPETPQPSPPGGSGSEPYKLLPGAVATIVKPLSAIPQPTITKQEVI
ALR H2O2 inh: inhibitors of human ALR sulfhydryl oxidase, primary screen, biochemical, H2O2 detection, HRP-luminol luminescence, single point; hit rate 3.8% among 290,000; purified ALR, DTT oxidation; inhibition, % (concentration not given with the values); FAD-linked sulfhydryl oxidase ALR (Homo sapiens), P55789; AID 485317, 2010;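 active = mean and each replicate at 75% or more; inconclusive = only one of the two met; inactive = neither met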;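 also: stock transfer was 7.5 nL into about 7.5 µL; 0% = neutral wells and 100% = wells with inactivated enzyme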
Target sequence (P55789 whole entry, looked up): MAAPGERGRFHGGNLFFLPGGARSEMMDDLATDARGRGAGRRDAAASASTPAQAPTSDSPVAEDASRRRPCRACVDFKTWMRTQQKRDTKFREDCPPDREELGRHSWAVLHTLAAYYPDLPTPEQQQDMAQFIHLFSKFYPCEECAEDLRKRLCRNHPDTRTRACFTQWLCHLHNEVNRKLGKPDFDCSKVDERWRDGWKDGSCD
rRNA inh HTS: reduced GFP signal of wild-type E. coli, primary screen, bacterial rRNA inhibitor project, GFP/RFP fluorescence, OD600, single point | E. coli WT GFP vs humanized-ribosome RFP mutants, 24 h; active compounds read low; DMSO median 0, no signal -100 | GFP signal change (wild-type ribosome), % (no concentration beside the values) | hit rate 1.6% among 350,000 | AID 720706, 2013;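 active = significant combined selectivity score with lowered wild-type GFP, culture density cut under 30%, mutant RFP and density less affected; inactive = any of these conditions unmet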; also: one replicate is shown; some compounds called inactive have numbers as strong as hits
Vif TR-FRET: inhibitors of Vif binding to APOBEC3G peptide, primary screen, biochemical, TR-FRET, GST-Vif 1-94, biotin-A3G peptide, dose response retest (AID 1117319) | Virion infectivity factor (Human immunodeficiency virus type 1 group M subtype B (isolate … | TR-FRET GST-Vif / biotin-A3G peptide binding; higher % means a stronger effect; test concentration not given here; strong numbers were not always called active | inhibition, %; hits with a dose series show IC50 in µM | hit rate 0.57% among 260,000;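 active = above the screen mean plus three standard deviations and confirmed in dose response; inconclusive = results disagree or hit not tested in dose response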;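 also: Vif residues 1-94 fused to GST binding biotinylated APOBEC3G peptide 110-148; 0% = full assay without inhibitor and 100% = GST in place of GST-Vif; retest series ran down from 100 µM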
MLL AF4-AF9 inh: inhibitors of AF4 peptide binding to AF9, primary screen, biochemical, AlphaScreen, biotin-AF4 peptide, FLAG-AF9, single point. Protein AF-9 (Homo sapiens), P42568. inhibition, % at 10 µM. hit rate 0.47% among 350,000. AID 651704, 2012;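 active = every replicate reaching a set inhibition limit, whatever the replicate mean, cut at about 25% in these data; inconclusive = mean inhibition reaches that limit but some replicates miss it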;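 also: 0% = plate neutral control median and 100% = total signal loss; the record names both 10 and 1 µM as test concentration; the first replicate is given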
rRNA inh HTS OD600: further read-out of rRNA inh HTS, marked with its call; OD600 change, %; measured here: OD600 growth;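 optical density of the mix in the first replicate; 0 = DMSO median and -100 = no signal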
rRNA inh HTS RFP: recorded beside rRNA inh HTS, whose call it bears; RFP signal change, %; measured here: RFP humanized mutant strains;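 first replicate; 0 = DMSO median and -100 = no signal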
Numbers without * were called inactive; i = inactive; ? = inconclusive; nt = no result given. An excerpt; the hit share may differ from the screen's.

SMILES | FGF22 binding | Ecoli growth | HNF4A DNA FP | ALR H2O2 inh | rRNA inh HTS | rRNA inh HTS OD600 | rRNA inh HTS RFP | Vif TR-FRET | MLL AF4-AF9 inh
C[C@H]1CN([C@@H](C)CO)C(=O)c2cc(N(C)C)ccc2O[C@H]1CN(C)S(=O)(=O)c1cccs1 | i | nt | nt | nt | -4 | 0 | -0.4 | nt | 4.4
OC(CNCc1ccccc1Cl)COc1ccc(F)cc1 (centres undefined) | i | 0.66 | 0.3 | nt | 0 | -9 | 2.9 | nt | -1.7
COC(=O)c1cc2c(c3c4cc(OC)ccc4n(S(=O)(=O)c4cccc(C)c4)c13)C(=O)N(Cc1ccc(N(C)C)cc1)C2 | i | nt | nt | nt | 1 | 7 | 14 | nt | 1.5
COc1ccc(CN(C)C[C@H]2OCCCC[C@@H](C)Oc3ccc(NS(=O)(=O)c4ccc(OC)cc4)cc3C(=O)N([C@H](C)CO)C[C@H]2C)cc1 | i | nt | nt | nt | -4 | -3 | -3.0 | nt | -0.1
COc1ccc(NC(=O)N(C)C[C@@H]2Oc3ccc(NC(=O)Nc4cccc5ccccc45)cc3CC(=O)N([C@@H](C)CO)C[C@@H]2C)cc1 | i | nt | nt | nt | 0 | -10 | -2.4 | nt | -13
C[C@H]1CN([C@@H](C)CO)C(=O)c2cccc(NC(=O)C3CC3)c2O[C@@H]1CN(C)S(C)(=O)=O | i | nt | nt | nt | 4 | 1 | 0.1 | nt | 1.0
Cc1nnc(SCC(=O)Nc2ccccc2F)n1-c1ccc(F)cc1 | i | 0.7 | -2.7 | -12 | 7 | 9 | -0.4 | -7% | 0.6
CSc1ncccc1C(=O)N1CCCC(N2CCN(c3ccccc3F)CC2)C1 (centres undefined) | i | 0.73 | 0.9 | -2 | 6 | 4 | -1.9 | -5% | -2.2
O=C(CNC(=O)c1cc2c(s1)CCC2)Nc1ccccc1Br | nt | 0.72 | -0.2 | -7 | nt | nt | nt | 30% | nt
CCCNS(=O)(=O)c1ccc(CCC(=O)N2CCN(CC)CC2)cc1 | i | 0.69 | 2.9 | -11 | 3 | 1 | -1.9 | 26% | -70
C=CC(C)(O)CCCC(C)CCCC(C)CCCC(C)C (centres undefined) | i | 0.68 | -2.5 | 3 | 4 | 2 | -0.7 | nt | nt
COc1ccc(S(=O)(=O)Nc2ccc3c(c2)C(=O)N([C@H](C)CO)C[C@@H](C)[C@@H](CN(C)S(=O)(=O)c2ccc(Cl)cc2)OCCCC[C@H](C)O3)cc1 | i | nt | nt | nt | -2 | 7 | -1.8 | nt | -0.9
CCCNC(=O)Nc1ccc2c(c1)OC[C@@H](C)N(C(=O)c1ccccc1F)C[C@@H](C)[C@H](OC)CN(C)C2=O | i | nt | nt | nt | 2 | 1 | 1.5 | nt | 0.2
CCC(CC)NC(=O)C1CCN(S(=O)(=O)c2cccs2)CC1 | nt | 0.68 | 3.1 | -4 | nt | nt | nt | -3% | nt
O=C(CSc1nnc(-c2ccc(O)cc2)o1)Nc1ccccc1Br | i | 0.63 | -1.5 | -9 | 2 | 5 | -3.9 | nt | -2.8
C=CCN(Cc1ccc(Cl)s1)C(=O)c1cc(S(=O)(=O)N2CCOCC2)ccc1F | i | 0.73 | -0.9 | -9 | 17 | -26 | 4.3 | nt | 3.0
CN/S(=N/S(=O)(=O)c1ccccc1)c1ccc(C)cc1 (centres undefined) | nt | nt | -2.9 | -5 | nt | nt | nt | -12% | nt
O=C(C1CCC(CNc2c(N3CCCC3)c(=O)c2=O)CC1)N1CCc2ccccc21 (centres undefined) | i | 0.64 | 2.4 | nt | -10 | -4 | -4.9 | 5% | -4.7
CC1(Cc2cccc(C#N)c2)C(=O)Nc2ccc(-c3cccc(C(F)(F)F)c3)cc21 (centres undefined) | i | nt | -0.8 | nt | 2 | -26 | 7.0 | nt | -8.3
CCOC(=O)c1c(NC(=O)CCC(=O)O)sc2c1CC(C)(C)OC2 | i | 0.69 | 3.4 | -5 | 14 | 8 | -1.2 | -2% | -2.5
CCOC(=O)c1nn(-c2ccccc2C)c(=O)c(C#N)c1C | nt | 0.67 | 0.2 | -28 | nt | nt | nt | 12% | nt
COc1ccccc1NS(=O)(=O)c1ccc(O)c(C(=O)OCC(=O)c2ccc(Cl)cc2Cl)c1 | i | 0.73 | 1.5 | -4 | 8 | 13 | 10 | nt | 3.1
Cc1ccc(Nc2nc3ccccc3c(=O)s2)cc1 | i | 0.72 | 1.6 | 8 | 8 | 0 | 1.7 | nt | -2.2
CN1c2ccc(-c3ccccc3)cc2[C@H]2[C@H](CCN2S(=O)(=O)c2ccccc2F)[C@@H]1CO | i | nt | nt | nt | 0 | -10 | 6.1 | nt | 1.5
Cc1ccc(-c2[nH]c3cc(C(=O)NCCCn4ccnc4)ccc3c(=O)c2O)cc1 | i | 0.68 | 1.4 | 20 | -21* | 1.6* | -6.9* | ? | 57*

One compound at a time, from the list above. Order of values: FGF22 binding | Ecoli growth | HNF4A DNA FP | ALR H2O2 inh | rRNA inh HTS | rRNA inh HTS OD600 | rRNA inh HTS RFP | Vif TR-FRET | MLL AF4-AF9 inh
Entry for `COc1ccccc1NS(=O)(=O)c1ccc(O)c(C(=O)OCC(=O)c2ccc(Cl)cc2Cl)c1` → i | 0.73 | 1.5 | -4 | 8 | 13 | 10 | nt | 3.1
Entry for `CCOC(=O)c1c(NC(=O)CCC(=O)O)sc2c1CC(C)(C)OC2` → i | 0.69 | 3.4 | -5 | 14 | 8 | -1.2 | -2% | -2.5
Entry for `CCOC(=O)c1nn(-c2ccccc2C)c(=O)c(C#N)c1C` → nt | 0.67 | 0.2 | -28 | nt | nt | nt | 12% | nt

(cont.)
SMILES | FGF22 binding | Ecoli growth | HNF4A DNA FP | ALR H2O2 inh | rRNA inh HTS | rRNA inh HTS OD600 | rRNA inh HTS RFP | Vif TR-FRET | MLL AF4-AF9 inh
CN(C)CCN(C(=O)CCc1ccccc1)c1nc2c(F)cc(F)cc2s1 | i | 0.68 | -3.8 | -6 | -2 | 1 | 0.1 | 7% | 1.2
CN1C(=O)c2ccccc2C(C(=O)NCC2CCCO2)C1c1c[nH]c2ccccc12 (centres undefined) | nt | 0.76 | -3.2 | nt | nt | nt | nt | 4% | nt
CCn1nc(C(=O)Nc2ccc(N3CCOCC3)cc2)c2ccccc2c1=O | i | 0.67 | 2.0 | -11 | 7 | 6 | -0.9 | nt | -6.9
CCCN(C)C[C@@H]1Oc2cc(-c3ccccc3F)ccc2S(=O)(=O)N([C@@H](C)CO)C[C@@H]1C | i | nt | nt | nt | 6 | 1 | -1.7 | nt | 1.4
COc1ccc2c3c([nH]c2c1)[C@@H](CO)N(C(=O)CN1CCOCC1)CC31CN(Cc2ccccc2)C1 | i | nt | nt | nt | 6 | 15 | -2.4 | nt | 7.3
CCN(CC)C(=O)c1cccc(NC(=O)c2cc(C3CC3)nc3c2cnn3C(C)C)c1 | i | 0.68 | -3.0 | -3 | -14 | -27 | -4.9 | -10% | 1.5
C[C@@H]1CN([C@@H](C)CO)C(=O)Cc2cc(NC(=O)Nc3ccc4c(c3)OCO4)ccc2O[C@H]1CN(C)Cc1ccc(C(F)(F)F)cc1 | i | nt | nt | nt | 2 | 4 | 5.3 | nt | 0.7
COc1ccc(CNC(=O)CN(C)S(=O)(=O)c2ccc3c(c2)c(=O)n(C)c(=O)n3C)cc1 | i | 0.64 | -0.8 | -13 | 8 | 18 | -0.6 | nt | 2.1
CC(NC(=O)c1ccc(Cl)cc1)C(=O)NC1=NCCS1 (centres undefined) | nt | 0.66 | -0.1 | -15 | nt | nt | nt | -1% | nt
O=C(O)c1cnn(-c2nc(-c3ccc(Cl)cc3)cs2)c1C(F)(F)F | i | 0.68 | 2.0 | 0 | -6 | -7 | -2.8 | -13% | 0.0
COc1ccc(NC(=O)Nc2ccc3c(c2)CC(=O)N([C@H](C)CO)C[C@H](C)[C@@H](CN(C)Cc2ccc(C(=O)Nc4ccccc4N)cc2)O3)cc1 | i | nt | nt | nt | 1 | 2 | -1.3 | nt | -2.1
O=C(CCl)Nc1ccccc1C(=O)Nc1ccc2c(c1)OCO2 | i | 0.68 | -1.9 | nt | -8 | 9 | 1.8 | nt | -0.1
CCCC#Cc1ccc([C@@H]2[C@@H](CO)N3CCCCN(S(C)(=O)=O)C[C@@H]23)cc1 | i | nt | nt | nt | -2 | -38 | 14 | nt | -0.4
CCc1nn(C(C)C(=O)NCc2cccc(OC)c2)c(=O)c2cc3occc3n12 (centres undefined) | i | 0.66 | 3.4 | -2 | -2 | -1 | 0.2 | 5% | -5.9
Cc1ccc(C(=O)Nc2cccc(S(=O)(=O)N3CCOCC3)c2)cc1[N+](=O)[O-] | i | 0.71 | 0.7 | -5 | 8 | 3 | -2.9 | -2% | 3.8
O=C(C1CCOCC1)N1CC2(C1)[C@H](c1ccccc1)[C@@H](CO)N2C(=O)CC1CC1 | i | nt | nt | nt | 4 | 6 | -2.5 | nt | -2.2
C[C@H]1CN([C@@H](C)CO)S(=O)(=O)c2ccc(C#CC3CC3)cc2O[C@@H]1CN(C)Cc1cccc(F)c1 | i | nt | nt | nt | 4 | 5 | -1.6 | nt | 3.8
C[C@@H]1CN([C@H](C)CO)S(=O)(=O)c2ccc(-c3cccc(F)c3)cc2O[C@H]1CN(C)S(=O)(=O)c1ccccc1 | i | nt | nt | nt | 2 | -3 | 1.0 | nt | 0.6
O=C(Nc1ccccc1)N1CCCCN2[C@@H](CO)[C@@H](c3ccc(C#Cc4ccccc4)cc3)[C@@H]2C1 | i | nt | nt | nt | -56 | -79 | -8.1 | nt | 3.3
O=C(NCC(c1cccnc1)N1CCN(c2ccc(F)cc2)CC1)C1CCCCC1 (centres undefined) | nt | 0.7 | -1.9 | 98* | nt | nt | nt | -3% | nt
Cc1cccc(NC(=O)CN2C(=O)N/C(=C\c3ccc(-c4cccc(C(=O)O)c4)o3)C2=O)c1 | i | nt | -7.5 | 5 | -8 | -4 | -7.9 | ? | nt
C[C@@H](C(=O)CC(=O)OC(C)(C)C)[C@@H](O)c1c(F)cccc1Cl | i | nt | -0.8 | -1 | 2 | 9 | -2.6 | nt | 2.0
O/N=C1\CC(O)Cc2nonc21 (centres undefined) | nt | nt | 1.5 | -5 | nt | nt | nt | -5% | nt
Cc1ncc([N+](=O)[O-])n1CCOC(=O)NC(NCc1cccnc1)C(Cl)(Cl)Cl (centres undefined) | i | 0.7 | 0.5 | -26 | 8 | 13 | 2.4 | nt | -14
Fc1ccc2c(c1)Sc1ccc(Cl)cc1CC2N1CCN(CCC2OCCO2)CC1 (centres undefined) | i | 0.61 | 2.9 | nt | -46 | -76 | -13 | nt | 16
COc1ccc(C(=O)c2coc(-c3ccccc3C(=O)O)c2C(=O)O)cc1 | nt | 0.65 | -2.6 | -12 | nt | nt | nt | 13% | nt
CCn1cc2nc(SCC(=O)Nc3ccc(F)cc3F)n(Cc3ccccc3)c(=O)c2n1 | i | 0.72 | -0.3 | -4 | -14 | -22 | 1.6 | nt | -0.6
COc1ccccc1NC(=O)Nc1nc(CC(=O)NCc2ccccn2)cs1 | i | 0.67 | 1.0 | nt | 4 | 10 | -0.7 | 4% | -0.3
CCOC(=O)C1=C(COC(=O)CCOc2ccc(OC)cc2)NC(=O)NC1C (centres undefined) | i | 0.67 | -0.8 | 1 | 7 | 5 | 0.1 | nt | 0.6
